Cruzain noTriton: inhibitors of Trypanosoma cruzi cruzain without detergent; P25779; actives 2.3% (n = 200,000); purified cruzain, Z-FR-AMC fluorescence, no detergent; Potency, µM, for inactives: max response, negative = inhibition, hits mostly inhibitors;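 further: plate controls were enzyme without inhibitor for no effect and buffer without enzyme for full effect; nearly all actives have a fitted effect of over 40% in size; top concentration of the series not given in the record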
Target sequence (P25779 123-467 limits assumed): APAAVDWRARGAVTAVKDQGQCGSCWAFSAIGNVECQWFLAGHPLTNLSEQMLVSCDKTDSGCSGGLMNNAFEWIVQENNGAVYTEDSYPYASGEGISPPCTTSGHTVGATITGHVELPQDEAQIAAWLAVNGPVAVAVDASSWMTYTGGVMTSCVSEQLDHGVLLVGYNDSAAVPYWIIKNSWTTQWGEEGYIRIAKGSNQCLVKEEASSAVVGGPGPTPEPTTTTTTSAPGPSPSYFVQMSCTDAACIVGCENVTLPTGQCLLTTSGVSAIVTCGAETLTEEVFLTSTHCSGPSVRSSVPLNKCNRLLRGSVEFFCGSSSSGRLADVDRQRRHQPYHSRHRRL
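Purified cruzain at 1.5 nM, pre-incubated 15 min with compound at room temperature in 100 mM sodium acetate pH 5.5, 5 mM DTT, 0.00005% Triton X-100. Reaction started with 2 uM Z-FR-AMC; AMC fluorescence increase over 60 s gives rate.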
SARS PLP yeast: inhibitors of SARS-CoV papain-like protease in yeast | AID 485353 | Potency, µM (series often up to 32.9 µM), for inactives: at the top dose activity, positive = growth rescue | actives 0.19% (n = 330,000) | S. cerevisiae expressing SARS-CoV PLpro, growth rescue; control for the full effect not named in the record; active means well fitted rising curve with a large enough effect; inconclusive means small, poorly fitted or top-dose-only effect; inactive means no such curve, though single readings can be large or run the other way; further: 0% is about no effect; nearly all actives have a fitted effect of over 55% in size; growth read by luminescence after 48 h
RE007 growth inh: less growth of the S. pombe RE007 Vpr strain; Potency, µM (top dose mostly 92.2 µM), inactives show at the top dose activity change, negative = less growth; actives 0.21% (n = 360,000); S. pombe RE007 Vpr strain, BacTiter-Glo ATP luminescence, 24 h; control for the full effect not named in the record; active = well fitted falling curve with a large enough effect; inconclusive = small, poorly fitted or top-dose-only effect; inactive = no such curve, though single readings can be large or run the other way;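 further: on the % scale 0 is the no-effect control and ±100 the full control effect; nearly all actives have a fitted effect of over 50% in size; the assay follows cell death caused by Vpr and the record does not say whether a fall means rescue or toxicity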
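Fission yeast strain RE007, carrying one chromosomally integrated HIV-1 vpr copy, was seeded at OD 0.01 in PMG+AL medium with 23 nL pinned compound. After 24 h at 30 °C and 99% humidity, viability was read by BacTiter-Glo luminescence.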
Marburg entry inh: Marburg virus entry inhibition; Marburg virus pseudotyped entry inhibition, cell reporter; control for the full effect not named in the record; about a third of the inactives were read at about 46 µM; Potency, µM (doses to about 37.8 µM), inactives show at the highest dose activity change, negative = inhibition, hits mostly inhibitors; AID 540276; actives 1.8% (n = 300,000); active = well fitted inhibition curve with a large enough effect; inconclusive = small, poorly fitted or top-dose-only effect, or effect the other way; inactive = flat fitted curve, though single readings scatter; tested in HEK293 cells; about a fifth of its hits are not listed in these tables; further: on the % scale 0 is the no-effect control and ±100 the full control effect; luciferase read-out
Cruzain Triton: blocks cruzain activity in presence of Triton detergent; P25779; purified cruzain, Z-FR-AMC fluorescence, 0.01% Triton; Potency, µM, inactives show max response, negative = inhibition, usual class: inhibitors; actives 0.43% (n = 200,000);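 further: plate controls were neutral wells for no effect and buffer without enzyme for full effect; nearly all actives have a fitted effect of over 40% in size; top concentration of the series not given in the record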
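Sodium acetate buffer (100 mM, pH 5.5) containing 5 mM DTT and 0.01% Triton X-100 hosted 1.5 nM cruzain and test compound for 15 min at room temperature. Cleavage of 2 uM Z-FR-AMC was then tracked by fluorescence.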
NS1 inh: influenza NS1 inhibition; Potency, µM (titrated, usually from 46.1 µM), for the others: at the top dose activity, positive = more growth; AID 2326; actives 0.4% (n = 270,000); S. cerevisiae slowed by influenza A NS1, growth recovery by OD600; active means well fitted rising curve with a large enough effect; inconclusive means small, poorly fitted or top-dose-only effect; inactive means no such curve, though single readings can be large or run the other way; further: nearly all actives have a fitted effect of over 50% in size
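Read-out: OD600 growth recovery of NS1-expressing budding yeast. Cells grown overnight at 30C in -URA glucose medium, washed, resuspended and diluted 1:100 in 2% galactose assay medium, pH 6.0. Same strain lacking NS1 served as positive control.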
2A StopGo: lowers the luciferase signal of an FMDV 2A StopGo reporter | human cells with a luciferase reporter of 2A StopGo recoding; control for the full effect not named in the record | Potency, µM (titrated, usually from 57.9 µM), inactives show top-dose signal change, negative = less light | actives 1.2% (n = 410,000) | AID 1159524; active = well fitted falling curve with a large enough effect; inconclusive = small, poorly fitted or top-dose-only effect; inactive = no such curve, though single readings can be large or run the other way; tested in HEK293T cells; further: on the % scale 0 is the no-effect control and ±100 the full control effect; nearly all actives have a fitted effect of over 45% in size; luciferase light after 4 h
Lassa entry inh: inhibitors of Lassa virus binding or cell entry; Lassa virus pseudotype entry inhibition, cell reporter; control for the full effect not named in the record; AID 540256; Potency, µM (top dose mostly 37.9 µM), for the others: at the top dose activity change, negative = inhibition, most hits filed as inhibitors; actives 1.2% (n = 300,000); active means well fitted inhibition curve with a large enough effect; inconclusive means small, poorly fitted or top-dose-only effect, or effect the other way; inactive means flat fitted curve, though single readings scatter; tested in HEK293 cells; further: on the % scale 0 is the no-effect control and ±100 the full control effect; nearly all actives have a fitted effect of over 50% in size; luciferase read-out
* marks the source's active call; other numbers are inactive results; & = joins results of further samples; [ ] = dose if it differs, or a comment. Unless noted, the call rests on the fitted dose curve; in most records, active means well fitted curve in the direction sought with a large enough effect; inconclusive means small, poorly fitted or top-dose-only effect, or another doubt; inactive means no such curve, though single readings can be large; an effect the other way counts as inactive or inconclusive. Potency means the concentration at half of the fitted maximal effect.

Screening COc1ccc(S(=O)(=O)N2CCOCC2)cc1C(=O)Nc1cc(C)on1 returned Cruzain noTriton -3%, SARS PLP yeast 2%, RE007 growth inh -12%, Marburg entry inh inconclusive, Cruzain Triton 2.1%, NS1 inh -4%, 2A StopGo -2% and Lassa entry inh 2%.
`CCc1nnc(NC(=O)C2CCC2)s1` gave Cruzain noTriton 2%, SARS PLP yeast 1%, RE007 growth inh 8%, Marburg entry inh 2%, Cruzain Triton -1.1%, NS1 inh 0%, 2A StopGo 16% and Lassa entry inh 0%.
For CSc1nc(N2CCOCC2)c2ccccc2n1 the results were Cruzain noTriton -8%, SARS PLP yeast -7%, RE007 growth inh -2%, Marburg entry inh 3%, Cruzain Triton 12%, NS1 inh -17%, 2A StopGo 3% and Lassa entry inh -3%.
Screening NC(=S)N/N=C/c1ccc(C23CC4CC(CC(C4)C2)C3)cc1 returned SARS PLP yeast inconclusive, RE007 growth inh 8%, Marburg entry inh inconclusive, NS1 inh 0%, 2A StopGo -15% and Lassa entry inh inconclusive.
COc1cc(C(=O)NN2C(=O)NC3(CCC(C)CC3)C2=O)ccc1OC(F)F (stereo not drawn) was read as SARS PLP yeast -2%, RE007 growth inh 9%, Marburg entry inh inconclusive, 2A StopGo -11% and Lassa entry inh 9%.
`Cc1nc(Sc2cccn2C)c(C(F)(F)F)c(=O)[nH]1` gave Cruzain noTriton 6%, SARS PLP yeast 2%, RE007 growth inh -12%, Marburg entry inh 5%, Cruzain Triton 1.7%, NS1 inh 0%, 2A StopGo -10% and Lassa entry inh inconclusive.
Screening Cc1cc(Cl)ccc1OCC(=O)N1CCC(c2nc3ccccc3s2)CC1 returned Cruzain noTriton inconclusive, Marburg entry inh 2%[46.1 µM], Cruzain Triton -10.0%, 2A StopGo inconclusive and Lassa entry inh 2%[46.1 µM].
For Cc1cc(=O)oc2cc(OCC(=O)OC(C)C(=O)Nc3ccc(S(N)(=O)=O)cc3)ccc12 (stereo not drawn) the results were SARS PLP yeast 1%, RE007 growth inh 3%, Marburg entry inh 12%, 2A StopGo -14% and Lassa entry inh inconclusive.
COc1ccc(NC(=O)CSc2nc3c(oc4ccccc43)c(=O)n2-c2ccccc2)cc1OC was read as Cruzain noTriton inconclusive, Marburg entry inh -6%[46.1 µM], Cruzain Triton -2.2% and 2A StopGo -3%.
COc1cc(O)cc2c1C(=O)OC(C)CCCC(=O)CCC/C=C\2 (stereo not drawn) was read as SARS PLP yeast 22%, RE007 growth inh -13%, Marburg entry inh 19%[46.1 µM], NS1 inh 14%, 2A StopGo -26% and Lassa entry inh -2%.
`CC1CCCCC12NC(=O)N(CC(=O)N1CCN(S(=O)(=O)c3ccc4c(c3)CCC4)CC1)C2=O` (stereo not drawn) gave SARS PLP yeast 2%, RE007 growth inh -25%, Marburg entry inh inconclusive, 2A StopGo 0% and Lassa entry inh -2%.
For C=CCn1c(SCC(=O)NC2CCCC2)nc2c([nH]c3ccccc32)c1=O the results were SARS PLP yeast -6%, RE007 growth inh -2%, Marburg entry inh 11%, NS1 inh 13%, 2A StopGo 9% and Lassa entry inh -13%.
CCc1nnc(NC(=O)CSc2nnnn2-c2cccc(C(=O)OC)c2)s1 was read as Cruzain noTriton -10%, SARS PLP yeast 2%, RE007 growth inh 15%, Marburg entry inh inconclusive, Cruzain Triton 4.0%, NS1 inh 3%, 2A StopGo inconclusive and Lassa entry inh -13%.
For COc1ccc(CNC(=O)COC(=O)C2CCN(S(=O)(=O)c3ccccc3C(F)(F)F)CC2)cc1 the results were Cruzain noTriton inconclusive, SARS PLP yeast 8%, RE007 growth inh -3%, Marburg entry inh -3%, Cruzain Triton -1.8%, NS1 inh -25%, 2A StopGo 2% and Lassa entry inh 1%.
Cc1ccc2oc(-c3ccc(Cl)c(NC(=O)c4ccc(-c5ccccc5[N+](=O)[O-])o4)c3)nc2c1 was read as Cruzain noTriton -2%, Marburg entry inh 10%[46.1 µM], Cruzain Triton 0.6%, 2A StopGo 58%[activator] and Lassa entry inh 3%[46.1 µM].
For CCN(Cc1ccccc1)C(=O)COC(=O)CNC(=O)c1ccc(C)s1 the results were SARS PLP yeast 3%, RE007 growth inh -10%, NS1 inh 5% and 2A StopGo -6%.
`Cc1cc(N2CCN(c3cccc(C(F)(F)F)c3)CC2)n2nc(-c3ccccc3C)nc2n1` gave Cruzain noTriton 4%, Marburg entry inh 3%[46.1 µM], Cruzain Triton -0.6%, 2A StopGo 0% and Lassa entry inh 0%[46.1 µM].
`Cc1cc(=O)[nH]c(Sc2c(-c3ccccc3)c3ccccc3[nH]c2=O)n1` gave Cruzain noTriton -17%, SARS PLP yeast 1%, RE007 growth inh -7%, Marburg entry inh 4%, Cruzain Triton -13%, NS1 inh -14%, 2A StopGo 3% and Lassa entry inh -6%.
COc1ccccc1N1CCN(Cc2ccc(F)cc2)CC1 was read as SARS PLP yeast 0%, RE007 growth inh -11%, Marburg entry inh inconclusive, 2A StopGo -4% and Lassa entry inh inconclusive.
`COc1ccc(Oc2nc3ccccc3n3cccc23)cc1` gave Cruzain noTriton -10%, SARS PLP yeast -7%, RE007 growth inh inconclusive, Marburg entry inh -22%, Cruzain Triton -4.5%, NS1 inh 9%, 2A StopGo -16% and Lassa entry inh -7%.

The closing 2 compounds of the part above come first, to join the parts:
COc1ccccc1N1CCN(Cc2ccc(F)cc2)CC1 was read as SARS PLP yeast 0%, RE007 growth inh -11%, Marburg entry inh inconclusive, 2A StopGo -4% and Lassa entry inh inconclusive.
`COc1ccc(Oc2nc3ccccc3n3cccc23)cc1` gave Cruzain noTriton -10%, SARS PLP yeast -7%, RE007 growth inh inconclusive, Marburg entry inh -22%, Cruzain Triton -4.5%, NS1 inh 9%, 2A StopGo -16% and Lassa entry inh -7%.
For COCCc1nc2ccc(C(=O)NCc3cccc(-n4cccn4)c3)cc2o1 the results were SARS PLP yeast 1%, RE007 growth inh 9%, NS1 inh -12% and 2A StopGo -5%.
`Cc1cc(C)cc(NC(=S)NC2CC3CCCC(C2)N3C2CC2)c1` (stereo not drawn) gave SARS PLP yeast 1%, RE007 growth inh 10%, Marburg entry inh inconclusive, NS1 inh 2%, 2A StopGo -3% and Lassa entry inh inconclusive.
For CCOc1ccc(NC(=O)CN(C)c2nnnn2-c2ccccc2)cc1OCC the results were Cruzain noTriton -2%, SARS PLP yeast -1%, RE007 growth inh -4%, Marburg entry inh 3%&3%, Cruzain Triton 1.3%, NS1 inh -4%, 2A StopGo -11% and Lassa entry inh inconclusive.
Cc1cccn2c(=O)c3cc(C(=O)N4CCCCC4)sc3nc12 was read as SARS PLP yeast 3%, RE007 growth inh 16%, Marburg entry inh 14%[46.1 µM], NS1 inh 1%, 2A StopGo 70%[activator] and Lassa entry inh 18%.
For CCn1c(=O)c(C(=O)NCc2ccccc2Cl)c(O)c2ccccc21 the results were SARS PLP yeast 2%, RE007 growth inh -10%, NS1 inh 10% and 2A StopGo -13%.
For O=C(C1=NNC2C(=O)N(c3ccccc3)C(=O)C12)c1nc(Cl)ccc1Cl (stereo not drawn) the results were Cruzain noTriton -7%, SARS PLP yeast 6%, RE007 growth inh 25%, Marburg entry inh inconclusive, Cruzain Triton -0.8%, NS1 inh 11%, 2A StopGo 4% and Lassa entry inh 13%.
For O=C(c1ccc([N+](=O)[O-])cc1)N(C1=NCCCCS1)c1ccccc1 the results were Cruzain noTriton -3%, SARS PLP yeast 1%, RE007 growth inh 36%, Marburg entry inh 8%, Cruzain Triton 1.4%, NS1 inh 0%, 2A StopGo -26% and Lassa entry inh 3%.
`O=C(CF)N(O)c1ccc(C=Cc2ccccc2)cc1` gave RE007 growth inh -12%, Marburg entry inh 1µM*, 2A StopGo 16% and Lassa entry inh 1.1µM*.
`O=C(NCc1cccnc1)C(=O)N/N=C/c1ccc([N+](=O)[O-])cc1` gave SARS PLP yeast 1%, RE007 growth inh -4%, Marburg entry inh 22%[46.1 µM], 2A StopGo -5% and Lassa entry inh 0%[46.1 µM].
For COc1ccc(NC(=S)N2CCc3ccccc3C2)cc1 the results were Cruzain noTriton -4%, SARS PLP yeast 11%, RE007 growth inh 3%, Marburg entry inh inconclusive, Cruzain Triton -0.7%, NS1 inh -11%, 2A StopGo 105%[activator] and Lassa entry inh 6%.
CCN(CC)S(=O)(=O)c1ccc(N2CCOCC2)c(NC(=O)COc2ccc(Cl)cc2)c1 was read as SARS PLP yeast -4%, RE007 growth inh 2%, NS1 inh -3% and 2A StopGo 8%.
`CCc1ccc(NC(=O)CCn2cnc3ccccc3c2=O)cc1` gave Cruzain noTriton -1%, Cruzain Triton -2.8%, 2A StopGo 14% and Lassa entry inh -9%[46.1 µM].
`O=C(CCc1nc(-c2ccc(Cl)cc2)no1)NC1CCCC1` gave SARS PLP yeast 1%, RE007 growth inh 14%, NS1 inh -25% and 2A StopGo -1%.
Screening CC(C)c1cc(C(N)=O)c(NC(=O)c2cccc(COc3ccc(Cl)cc3)c2)s1 returned Cruzain noTriton 20µM*, SARS PLP yeast -10%, RE007 growth inh -3%, Marburg entry inh 3.2µM*, Cruzain Triton -2.8%, NS1 inh -11%, 2A StopGo -19% and Lassa entry inh inconclusive.
`O=C(Nc1cccc(Cl)c1)N1CCc2ccccc2C1` gave SARS PLP yeast -17%, RE007 growth inh -12%, Marburg entry inh inconclusive, NS1 inh -93%, 2A StopGo 38%[activator] and Lassa entry inh 20%[46.1 µM].
`CC(CCc1ccccc1)NC(=O)CC(C)c1ccccc1` (stereo not drawn) gave SARS PLP yeast 0%, RE007 growth inh 11%, NS1 inh 2% and 2A StopGo 2%.
Cc1cccc(N2C(=O)CC(=O)NC2=O)c1 was read as Cruzain noTriton -11%, SARS PLP yeast 10%, RE007 growth inh 27%, Marburg entry inh 14%, Cruzain Triton 2.5%, NS1 inh 11%, 2A StopGo 7% and Lassa entry inh inconclusive.
Screening COc1ccccc1/C=N/n1nnnc1N returned SARS PLP yeast -3%, RE007 growth inh -3%, Marburg entry inh inconclusive, NS1 inh -4%, 2A StopGo 9% and Lassa entry inh 5%[46.1 µM].

Source: PubChem BioAssay (National Center for Advancing Translational Sciences (NCATS))
